Screening data (PubChem BioAssay)
NS1 function inh = qHTS Assay for Inhibitors of Influenza NS1 Protein Function. S. cerevisiae slowed by influenza A NS1, growth recovery by OD600. Potency, µM (series often up to 46.1 µM), without a hit: top-dose activity, positive = more growth. hit rate 0.4% among 270,000; active means well fitted rising curve with a large enough effect; inconclusive means small, poorly fitted or top-dose-only effect; inactive means no such curve, though single readings can be large or run the other way; further: nearly all actives have a fitted effect of over 50% in size
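OD600 was taken as the measure of yeast growth restored by compound in an NS1-expressing S. cerevisiae strain. Cells had been washed out of glucose medium and diluted 1:100 into galactose -URA medium, pH 6.0.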
MARV entry inh = qHTS for inhibitors of binding or entry into cells for Marburg Virus | Potency, µM (series often up to 37.8 µM), for the others: at the top dose activity change, negative = inhibition, most hits filed as inhibitors | Marburg virus pseudotyped entry inhibition, cell reporter; control for the full effect not named in the record; about a third of the inactives were read at about 46 µM | hit rate 1.8% among 300,000; active = well fitted inhibition curve with a large enough effect; inconclusive = small, poorly fitted or top-dose-only effect, or effect the other way; inactive = flat fitted curve, though single readings scatter; tested in HEK293 cells; about a fifth of its hits are not listed in these tables; further: on the % scale 0 is the no-effect control and ±100 the full control effect; luciferase read-out
SARS PLP yeast = qHTS of Yeast-based Assay for SARS-CoV PLP | S. cerevisiae expressing SARS-CoV PLpro, growth rescue; control for the full effect not named in the record | Potency, µM (titrated, usually from 32.9 µM), for the others: top-dose activity, positive = growth rescue | hit rate 0.19% among 330,000; active means well fitted rising curve with a large enough effect; inconclusive means small, poorly fitted or top-dose-only effect; inactive means no such curve, though single readings can be large or run the other way; further: 0% is about no effect; nearly all actives have a fitted effect of over 55% in size; growth read by luminescence after 48 h
Cruzain noTriton = qHTS Assay for Promiscuous and Specific Inhibitors of Cruzain (without detergent) | hit rate 2.3% among 200,000 | purified cruzain, Z-FR-AMC fluorescence, no detergent | Cruzipain (Trypanosoma cruzi), P25779 | Potency, µM, without a hit: max response, negative = inhibition, actives largely listed as inhibitors;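 further: plate controls were enzyme without inhibitor for no effect and buffer without enzyme for full effect; nearly all actives have a fitted effect of over 40% in size; top concentration of the series not given in the record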
Target sequence (P25779 123-467 limits assumed): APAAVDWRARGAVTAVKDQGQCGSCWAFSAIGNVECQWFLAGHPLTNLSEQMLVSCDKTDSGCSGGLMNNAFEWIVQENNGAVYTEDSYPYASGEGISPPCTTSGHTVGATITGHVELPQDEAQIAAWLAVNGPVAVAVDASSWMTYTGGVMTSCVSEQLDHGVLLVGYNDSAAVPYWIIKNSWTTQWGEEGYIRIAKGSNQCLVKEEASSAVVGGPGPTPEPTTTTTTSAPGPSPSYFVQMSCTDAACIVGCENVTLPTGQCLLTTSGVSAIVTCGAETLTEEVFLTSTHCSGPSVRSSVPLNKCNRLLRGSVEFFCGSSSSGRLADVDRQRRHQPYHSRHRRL
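Purified cruzain at 1.5 nM, pre-incubated 15 min with compound at room temperature in 100 mM sodium acetate pH 5.5, 5 mM DTT, 0.00005% Triton X-100. Reaction started with 2 uM Z-FR-AMC; AMC fluorescence increase over 60 s gives rate.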
RE007 growth inh = qHTS Assay for Inhibitors of the HIV-1 protein Vpr; S. pombe RE007 Vpr strain, BacTiter-Glo ATP luminescence, 24 h; control for the full effect not named in the record; Potency, µM (doses to about 92.2 µM), for inactives: at the highest dose activity change, negative = less growth; hit rate 0.21% among 360,000; AID 651644, 2012; active = well fitted falling curve with a large enough effect; inconclusive = small, poorly fitted or top-dose-only effect; inactive = no such curve, though single readings can be large or run the other way;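 further: on the % scale 0 is the no-effect control and ±100 the full control effect; nearly all actives have a fitted effect of over 50% in size; the assay follows cell death caused by Vpr and the record does not say whether a fall means rescue or toxicity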
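Fission yeast RE007 carrying one integrated HIV-1 vpr copy, seeded at OD 0.01 in PMG+AL medium with 23 nL pinned compound. Grown 24 h at 30 degrees; viability read by BacTiter-Glo luminescence after 5 min.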
LASV entry inh = qHTS for Inhibitors of binding or entry into cells for Lassa Virus | Lassa virus pseudotype entry inhibition, cell reporter; control for the full effect not named in the record | AID 540256, 2011 | hit rate 1.2% among 300,000 | Potency, µM (top dose mostly 37.9 µM), inactives show at the top dose activity change, negative = inhibition, hits mostly inhibitors; active means well fitted inhibition curve with a large enough effect; inconclusive means small, poorly fitted or top-dose-only effect, or effect the other way; inactive means flat fitted curve, though single readings scatter; tested in HEK293 cells; further: on the % scale 0 is the no-effect control and ±100 the full control effect; nearly all actives have a fitted effect of over 50% in size; luciferase read-out
StopGo reporter = High Throughput Screening for Foot and Mouth Disease Virus Antivirals. Potency, µM (series often up to 57.9 µM), without a hit: at the highest dose signal change, negative = less light. hit rate 1.2% among 410,000. human cells with a luciferase reporter of 2A StopGo recoding; control for the full effect not named in the record; active = well fitted falling curve with a large enough effect; inconclusive = small, poorly fitted or top-dose-only effect; inactive = no such curve, though single readings can be large or run the other way; tested in HEK293T cells; further: on the % scale 0 is the no-effect control and ±100 the full control effect; nearly all actives have a fitted effect of over 45% in size; luciferase light after 4 h
Cruzain inh Det = qHTS Assay for Promiscuous and Specific Inhibitors of Cruzain (with detergent); purified cruzain, Z-FR-AMC fluorescence, 0.01% Triton; Potency, µM, for the others: max response, negative = inhibition, hits mostly inhibitors; hit rate 0.43% among 200,000; AID 1478, 2009;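 further: plate controls were neutral wells for no effect and buffer without enzyme for full effect; nearly all actives have a fitted effect of over 40% in size; top concentration of the series not given in the record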
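Cysteine protease activity tested under reducing, mildly acidic conditions (100 mM sodium acetate pH 5.5, 5 mM DTT) plus 0.01% Triton X-100. Cruzain 1.5 nM; substrate Z-FR-AMC 2 uM; 15 min compound preincubation at room temperature.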
* marks the source's active call; other numbers are inactive results; ? = inconclusive; . = not tested or not shown; & = joins results of further samples; [ ] = another dose, or the depositor's remark. Unless noted, the call rests on the fitted dose curve; in most records, active means well fitted curve in the direction sought with a large enough effect; inconclusive means small, poorly fitted or top-dose-only effect, or another doubt; inactive means no such curve, though single readings can be large; an effect the other way counts as inactive or inconclusive. Potency means the concentration at half of the fitted maximal effect. Rows are unselected. Share with any hit: about 4.7%.

SMILES | NS1 function inh | MARV entry inh | SARS PLP yeast | Cruzain noTriton | RE007 growth inh | LASV entry inh | StopGo reporter | Cruzain inh Det
Nn1c(SCC(=O)N2CCCCC2)nnc1-c1ccncc1 | 6% | -8% | -3% | -12% | -9% | 1% | -18% | 2.9%
COc1cccc([C@@H]2Oc3ccc(OC)cc3C(=O)[C@H]2O)c1 | 0% | ? | -3% | -6%&-8% | -14% | ? | 45%[activator] | 7.1%&-2.1%
O=C(O)COc1c(-c2ccccc2)oc2ccccc2c1=O | -21% | 17% | -4% | 1% | 13% | 4% | -12% | -0.4%
CN(C)C(CNC(=O)c1ccc2nccnc2c1)c1ccco1 (stereo not given) | . | 13%[46.1 µM] | 2% | . | -5% | 1%[46.1 µM] | 24% | .
O=c1c(Cc2ccccc2)c(O)ccn1CCc1cnc[nH]1 | . | 4%[46.1 µM] | 0% | . | -7% | -3%[46.1 µM] | -2% | .
COC(=O)c1ccc(S(=O)(=O)N2CCN(CCO)CC2)n1C | -3% | 4%[14.2 µM] | 2% | . | 16% | . | -7% | .
Cc1cc(NC(=O)Cn2cnc3c(nnn3-c3ccc(C)c(Cl)c3)c2=O)no1 | -2% | -4% | 0% | . | -9% | 16% | -23% | .
O=C(NCC1CCCO1)c1cccc(Br)c1 (stereo not given) | -1% | 17% | 5% | -13% | -5% | ? | 18% | -1.0%
COC(=O)C(=NNc1c(C)n(C)n(-c2ccccc2)c1=O)C(=O)OC | 5% | -14% | -15% | 0% | -1% | 1% | -21% | -5.2%
O=C(Cc1ccccc1)NCC1CCCO1 (stereo not given) | 7% | 0% | -1% | 1% | -13% | 1% | 23% | 8.8%
Cc1ccc(S(=O)(=O)N(C)c2ccc(OC(C)C(=O)N3CCCC3)cc2)cc1C (stereo not given) | . | -16% | . | . | 14% | 6%[46.1 µM] | 0% | .
Cc1ccc(NC(=O)c2cnc(SCC(=O)Nc3cc(C)on3)n(C)c2=O)cc1 | . | . | . | 1% | . | 6%[46.1 µM] | 26% | 1.0%
Cc1cc(C)c(C)c(OCC(=O)O/N=C(\N)c2cccnc2)c1 | 6% | . | 0% | . | 11% | . | -15% | .
c1cn(CCCNc2ncnc3nc[nH]c23)cn1 | 9% | . | 0% | -15% | 3% | . | -8% | -2.9%
CSc1ccccc1NC(=O)c1ccncc1 | 8% | -10% | -4% | -4% | -7% | 30%[14.3 µM] | 0% | -0.6%
COc1ccc(CCn2c(=N)c(C(=O)NCC3CCCO3)cc3c(=O)n4cccc(C)c4nc32)cc1 (stereo not given) | 4% | . | 5% | . | 6% | . | -10% | .
CCN1CCN(C(=O)Nc2ccc(OC)cc2OC)CC1 | 2% | -10%[46.1 µM] | 1% | . | 28% | 7% | -8% | .
Cc1cc(/C=C2\C(=N)N3N=CSC3=NC2=O)c(C)n1Cc1ccccc1 | 4% | ? | -1% | . | ? | -22% | 18% | .
COCCNC(=O)C(C#N)c1nc2ccccc2nc1N1CCCCCC1 (stereo not given) | -32% | ? | -6% | ? | 2% | -1% | -7% | -11%
O=C(Cn1c(NCCO)nc2ccccc21)c1ccccc1 | 4% | 7% | -1% | -4% | -8% | 0% | 25% | -5.4%
CCN1CCCC(OC(=O)c2cc(-c3ccc(C)cc3)nc3ccccc23)C1 (stereo not given) | . | ? | -6% | . | -14% | ? | -9% | .
COC(=O)CC1=C(C(=O)OC)C(c2ccc3c(c2Cl)OCO3)C(C#N)=C(N)O1 (stereo not given) | -9% | 7% | -3% | -5% | -10% | -11% | ? | -10%
O=C(/C=C/c1ccc2c(c1)OCO2)c1ccc[nH]1 | -9% | ? | -22% | -15% | -6% | ? | 30%[activator] | -8.1%
O=C(c1scc2c1CCCC2)N1CCCCC1 | -3% | 17%[46.1 µM] | -4% | 7% | 6% | 11% | -4% | -0.9%
CCOC(=O)C1CCCN(CCC(=O)Nc2ccccc2)C1 (stereo not given) | ? | -7% | -3% | -7% | 7% | -1% | -10% | 2.4%
O=P(OC1CCCCC1)(OC1CCCCC1)C(O)c1cccnc1 (stereo not given) | -4% | -3%[46.1 µM] | 0% | . | -17% | 28%[46.1 µM] | 10% | .
CCS(=O)(=O)c1nc(S(=O)(=O)c2ccc(C)cc2)c(N2CCCC2)s1 | -2% | . | -2% | . | 2% | . | 20% | .
CCOC(=O)c1c(O)c2cccc3c2n(c1=O)CC3 | -34% | -4%[46.1 µM] | 3% | . | -15% | 5% | 5% | .
CCOc1cc(/C=C/c2cc(C(F)(F)F)[nH]c(=O)n2)ccc1O | 2% | ? | 0% | . | -3% | ? | ? | .
CC(C)(C)c1cc(C(=O)NNC(=O)Nc2ccccc2)n(Cc2ccccc2)n1 | 0% | . | 0% | . | 5% | . | 27% | .
COc1ccc(NS(=O)(=O)c2cc(NC(=O)c3sccc3C)ccc2N2CCOCC2)cc1 | 2% | . | 1% | . | 1% | . | 82%[activator] | .
CCS(=O)(=O)N1Cc2ccccc2CC1C(=O)Nc1ccc(NC(C)=O)cc1 (stereo not given) | 6% | -13% | -2% | 8% | -6% | 29% | 11% | -3.7%
Cc1ccc(-c2nn3c(-c4ccco4)nnc3c3ccccc23)cc1S(=O)(=O)N1CCOCC1 | -1% | . | -5% | -9% | . | . | . | 6.1%
CCOc1ccc(NC(=O)c2ccc(-c3cccc(Cl)c3C)o2)cc1 | . | . | . | -8% | . | 7%[46.1 µM] | -10% | -3.3%
CCc1ccc(NC(=O)CSc2nnc(-c3cnccn3)n2Cc2ccco2)cc1 | -4% | -23% | -2% | 25% | 3% | -17% | -15% | -9.4%
C=C(C)C(=O)Oc1ccc(N2C(=O)CCC2=O)cc1 | -1% | . | 1% | . | -11% | . | -4% | .
COC(=O)c1cccc(NC(=O)CN2C(=O)c3ccccc3C2=O)c1 | 3% | . | 2% | . | 16% | . | 9% | .
CN(C)c1ccc(CNC(=O)c2cccc(NC(=O)N3CCSc4ncccc43)c2)cc1 | . | . | . | -22% | . | -15%[46.1 µM] | ? | -18%
C=CCn1c(=O)n2ncnc2c2c3c(sc21)CCCC3 | -11% | -11% | -2% | -10% | 9% | 2% | -21% | -0.5%
Cc1nn(C(C)(C)C)c(OC(=O)c2ccco2)c1Sc1ccccc1 | -20% | ? | -18% | 5% | 5% | ? | -5% | -3.2%
COc1cc(NC(=O)c2cccs2)ccc1NC(=O)c1ccco1 | -13% | -1% | -3% | -3% | 5% | ? | 36%[activator] | 4.4%
COc1ccc(CC(C)Nc2cccc(F)c2)cc1 (stereo not given) | -10% | . | -2% | . | 1% | . | -17% | .
O=C(Nc1cccc(-c2cnc3ccccc3n2)c1)c1cccc(NC(=O)c2ccco2)c1 | 10% | 12µM* | 4% | -9% | -3% | ? | ? | -8.2%
Cc1ccc(NC2(c3ccccc3)C(=O)c3ccccc3C2=O)cc1F | . | 11%[46.1 µM] | . | -18% | . | 0%[46.1 µM] | -24% | -8.3%
COc1ccc2oc(C(=O)OCC(=O)/C(C#N)=C(\C)N)c(C)c2c1 | -3% | 28% | 0% | . | -1% | 13% | 35%[activator] | .
O=C(CN(c1ccc2c(c1)OCCO2)S(=O)(=O)c1ccccc1)NCc1ccc(Cl)cc1 | 26% | ? | 3% | 0% | 6% | -7% | -12% | -4.1%
COC(=O)[C@H](CCSC)NC(=O)Nc1cc(OC)cc(OC)c1 | -3% | 6%[46.1 µM] | -1% | . | 2% | 4%[46.1 µM] | -3% | .
CN(C)C(=O)NCc1ccc(S(N)(=O)=O)cc1 | 1% | 2% | 8% | -3% | 14% | 21% | 16% | 2.3%
Cc1ccc(S(=O)(=O)Nc2ccc3ncccc3c2[N+](=O)[O-])cc1 | . | 19% | . | . | 3% | 11%[46.1 µM] | 35%[activator] | .
NC(=O)c1cc(S(=O)(=O)NCCc2ccc(S(N)(=O)=O)cc2)cs1 | -1% | . | 4% | . | -1% | . | 1% | .
NC(=O)[C@H]1CC2(CC(c3cccc(NC(=O)CC(c4ccccc4)c4ccccc4)c3)=NO2)CN1C(=O)CC(c1ccccc1)c1ccccc1 (stereo not given in full) | 7.1µM* | . | 2% | . | 4% | . | -14% | .
O=C(COC(=O)c1cc([N+](=O)[O-])ccc1N1CCOCC1)Nc1cc(F)ccc1F | . | -20%[46.1 µM] | -4% | . | -1% | ? | -24% | .
Cc1ccc(Cl)cc1Nc1nc(N2CCOCC2)nc(N2CCOCC2)n1 | -6% | ? | -5% | . | 0% | ? | ? | .
CCC(=O)N1CCc2cc(S(=O)(=O)NC(Cc3ccccc3)C(=O)NCc3ccccc3OC)ccc21 (stereo not given) | . | -1%[46.1 µM] | . | 5% | . | -16%[46.1 µM] | 34%[activator] | -2.7%
O=C(COC(=O)c1ccccn1)c1cccc(Br)c1 | 5% | 18% | -4% | . | -23% | 7% | -3% | .
Cc1ccc(/C=C/C(=O)NCc2ccc3c(c2)OCO3)o1 | 13% | 7% | -25% | -10% | 16% | 1% | 27% | -15%
Cn1cnc2c1c(=O)n(Cc1ccc(F)cc1Cl)c(=O)n2C | 0% | 9% | 2% | 6% | -3% | 5% | -11% | 3.1%
CCOC(=O)COc1ccc2c(=O)c(-c3ccc(OC)c(OC)c3)c(C(=O)OCC)oc2c1 | 2% | 22%[46.1 µM] | -1% | . | -4% | 3% | -21% | .
COc1ccc(NC(=O)c2cc(-c3ccccc3OC)on2)cc1 | 2% | -22% | 3% | -10% | -8% | ? | 12% | -5.5%
CCOC(=O)C1(Cc2cccc(OC)c2)CCCN(C(=O)CCc2cccnc2)C1 (stereo not given) | -5% | . | 0% | . | -2% | . | 82%[activator] | .
CC(C)NC(=O)CCc1nnc(Cc2cccc(C(F)(F)F)c2)o1 | 1% | ? | -2% | . | -15% | 29% | 51%[activator] | .
